Screens (PubChem BioAssay)
VLA-4 inh: inhibition in a human VLA-4 binding assay; P13612; VLA-4 expressing cells, ligand binding flow cytometry; inhibition, % (about 7 µM as worked out from the volumes in the protocol); hit rate 0.2% among 330,000; in the data active means inhibition above about 50%
AGP1-GFP MLPCN: modulators of TOR pathway AGP1-GFP in S. cerevisiae. S. cerevisiae AGP1-GFP multiplex flow cytometry, 3 h; GFP as percent of DMSO wells. GFP response vs DMSO, % at 10 µM. hit rate 0.02% among 320,000;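 active means GFP response relative to DMSO above a set limit, near screen average plus 3 SD, cut at about 150% in these data; inconclusive means fewer than 70 cells counted for the yeast strain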;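 further: median GFP channel fluorescence of the gated AGP1 strain per well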
CIT2-GFP yeast: alters CIT2-GFP fluorescence in TOR pathway yeast screen; S. cerevisiae CIT2-GFP strain, flow cytometry, 3 h; 100 means same as DMSO wells; GFP response vs DMSO, % at 10 µM; hit rate 0.065% among 320,000; AID 2029;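 active means GFP response relative to DMSO above a set limit, near the screen mean plus 3 SD, cut at about 150% in these data; inconclusive means Fewer than 70 cells measured for a yeast strain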;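 further: ratio of well median GFP fluorescence to mean of DMSO wells on the plate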
GRK2 aptamer HTS: blocks RNA aptamer binding to human GRK2; AID 488847; bead flow cytometry, FAM-aptamer displacement from GRK2; inhibition of aptamer binding, % at 10 µM; P25098; hit rate 0.59% among 330,000;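 active means inhibition of aptamer binding above 40%, roughly 3 SD of noise, on plates passing a quality check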;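 further: median bead fluorescence of bound FAM aptamer so fluorescent compounds give negative values; no value below 0 was filed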
GLD-1 RNA inh: GLD-1-TGE RNA interaction inhibition (C. elegans); Q17339; purified GLD-1 + fluorescein TGE RNA, fluorescence polarization; inhibition, % at 5.96 µM; hit rate 0.44% among 320,000;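 active means percent inhibition above a per-plate cutoff, the plate mean of test compounds plus 3 SD, cut at about 30% in these data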;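 further: 0% = DMSO wells with GLD-1 and probe and 100% = wells lacking GLD-1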
Yeast superoxide: lowers age-related superoxide in aged yeast cells. S. cerevisiae aged cells, superoxide DHE fluorescence; stronger effect = lower value. superoxide response (% of plate mean), % at 10 µM. hit rate 0.18% among 330,000;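 active means superoxide response under a set limit, about three screen SD below normal, cut at about 65% in these data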;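 further: yeast aged for seven days with compound at 30 °C before DHE staining; 100% = average MFI of all compound-treated wells on the plate with controls excluded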
MEX-5 binding: C. elegans MEX-5 TCR-2 RNA binding activity. Q9XUB2. MEX-5/FITC-TCR2 RNA binding, fluorescence polarization; stronger effect = lower value. activity score (negative = inhibition of binding), % at 10 µM. hit rate 0.38% among 300,000. AID 1832;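 active means inhibition past about -25% in most replicates, and total fluorescence under double the plate's negative control median, limit read from the data; inconclusive means replicates evenly split on the limit, or fluorescence at least double controls; inactive means too little inhibition in most replicates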;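 further: 0% = DMSO and -100% = 5 µM competing unlabeled TCR2 RNA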
Target sequence (Q9XUB2 whole entry, looked up): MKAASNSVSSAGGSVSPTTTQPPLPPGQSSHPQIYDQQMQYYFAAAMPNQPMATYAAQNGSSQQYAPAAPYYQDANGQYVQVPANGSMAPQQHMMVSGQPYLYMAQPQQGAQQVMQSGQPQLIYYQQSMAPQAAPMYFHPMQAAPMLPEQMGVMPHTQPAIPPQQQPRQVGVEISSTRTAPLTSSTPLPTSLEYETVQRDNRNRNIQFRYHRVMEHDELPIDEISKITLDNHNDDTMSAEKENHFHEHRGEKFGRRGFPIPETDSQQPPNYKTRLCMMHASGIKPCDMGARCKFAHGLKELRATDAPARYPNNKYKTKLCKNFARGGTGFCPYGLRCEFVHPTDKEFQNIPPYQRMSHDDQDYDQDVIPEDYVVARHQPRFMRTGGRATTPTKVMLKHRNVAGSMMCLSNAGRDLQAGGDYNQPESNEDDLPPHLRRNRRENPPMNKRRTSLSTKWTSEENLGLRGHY
* marks the source's active call; other numbers are inactive results; ? = inconclusive; · = no result given.

Labels used below – A = VLA-4 inh; B = AGP1-GFP MLPCN; C = CIT2-GFP yeast; D = GRK2 aptamer HTS; E = GLD-1 RNA inh; F = Yeast superoxide; G = MEX-5 binding
O=C(O)COc1ccc(Cl)cc1Cl
  A: -2.2; B: 100.3; C: 99.7; D: 29.0; E: -1.3; F: 108.1; G: -4.1
CC1=C2[C@@H]3OC(=O)[C@H](C)C3CC[C@@]2(C)C=CC1=O (some centres undefined)
  A: 0.4; B: 83.1; C: 110.7; D: 2.0; E: 0.0; F: 101.6; G: -1.0
Cc1cc(Cl)ccc1OC(C)C(=O)O (centres undefined)
  A: 44.6; B: 96.8; C: 93.9; D: 2.0; E: 1.4; F: 105.3; G: -1.6
CC(O)(CS(=O)(=O)c1ccc(F)cc1)C(=O)Nc1ccc(C#N)c(C(F)(F)F)c1 (centres undefined)
  A: 13.3; B: 92.4; C: 101.3; D: 4.0; E: 1.4; F: 90.4; G: 3.6
CC1=C2[C@H]3OC(=O)[C@@H](C)[C@@H]3CC[C@@]2(C)C=CC1=O
  A: 37.2; B: 99.6; C: 96.0; D: 1.0; E: 6.0; F: 82.9; G: ·
COc1cccc(N2C(=O)NC(=O)/C(=C\c3cn(C)c4ccccc34)C2=O)c1
  A: 6.3; B: 93.8; C: 98.5; D: 1.0; E: -3.3; F: 88.8; G: ?
O=[N+]([O-])CCO
  A: 18.5; B: 100.2; C: 85.5; D: 1.0; E: 1.0; F: 115.8; G: ·
Cc1nn(Cc2ccccc2Cl)c(Cl)c1C(=O)OCC(=O)NCc1ccco1
  A: -1.9; B: 104.4; C: 108.3; D: 0.0; E: 2.0; F: 78.5; G: -1.4
Oc1cccc2cccnc12
  A: 20.6; B: 98.2; C: 100.7; D: 0.0; E: 3.9; F: 89.8; G: 0.7
CCC/C=N/O
  A: 1.5; B: 107.4; C: 96.3; D: 1.0; E: 1.7; F: 82.8; G: ·

Quoted at random: 3 records from the list
Labels used below – A = VLA-4 inh; B = AGP1-GFP MLPCN; C = CIT2-GFP yeast; D = GRK2 aptamer HTS; E = GLD-1 RNA inh; F = Yeast superoxide; G = MEX-5 binding
Cc1cc(Cl)ccc1OC(C)C(=O)O (centres undefined)
  A: 44.6; B: 96.8; C: 93.9; D: 2.0; E: 1.4; F: 105.3; G: -1.6
Cc1nn(Cc2ccccc2Cl)c(Cl)c1C(=O)OCC(=O)NCc1ccco1
  A: -1.9; B: 104.4; C: 108.3; D: 0.0; E: 2.0; F: 78.5; G: -1.4
CC(O)(CS(=O)(=O)c1ccc(F)cc1)C(=O)Nc1ccc(C#N)c(C(F)(F)F)c1 (centres undefined)
  A: 13.3; B: 92.4; C: 101.3; D: 4.0; E: 1.4; F: 90.4; G: 3.6

Molecules above that have a COOH group (two):
Labels used below – A = VLA-4 inh; B = AGP1-GFP MLPCN; C = CIT2-GFP yeast; D = GRK2 aptamer HTS; E = GLD-1 RNA inh; F = Yeast superoxide; G = MEX-5 binding
O=C(O)COc1ccc(Cl)cc1Cl
  A: -2.2; B: 100.3; C: 99.7; D: 29.0; E: -1.3; F: 108.1; G: -4.1
Cc1cc(Cl)ccc1OC(C)C(=O)O (centres undefined)
  A: 44.6; B: 96.8; C: 93.9; D: 2.0; E: 1.4; F: 105.3; G: -1.6

A few values from the entries so far:
GRK2 aptamer HTS result of CCC/C=N/O is entered as 1.0
Yeast superoxide result of O=[N+]([O-])CCO is entered as 115.8

Some of the compounds tested; the hit share may differ from the screen's.
